# Screens: PubChem BioAssay, National Center for Advancing Translational Sciences (NCATS)
# SARS PLpro yeast: SARS-CoV PLP inhibition in yeast; 330,000 tested, 0.19% active; Potency, µM (series often up to 32.9 µM), for the others: at the highest dose activity, positive = growth rescue; S. cerevisiae expressing SARS-CoV PLpro, growth rescue; control for the full effect not named in the record; AID 485353; active means well fitted rising curve with a large enough effect; inconclusive means small, poorly fitted or top-dose-only effect; inactive means no such curve, though single readings can be large or run the other way; further: 0% is about no effect; nearly all actives have a fitted effect of over 55% in size; growth read by luminescence after 48 h
# 2A StopGo: lowers the luciferase signal of an FMDV 2A StopGo reporter. human cells with a luciferase reporter of 2A StopGo recoding; control for the full effect not named in the record. Potency, µM (top dose mostly 57.9 µM), inactives show at the top dose signal change, negative = less light. 410,000 tested, 1.2% active; active = well fitted falling curve with a large enough effect; inconclusive = small, poorly fitted or top-dose-only effect; inactive = no such curve, though single readings can be large or run the other way; tested in HEK293T cells; further: on the % scale 0 is the no-effect control and ±100 the full control effect; nearly all actives have a fitted effect of over 45% in size; luciferase light after 4 h
# Cruzain Triton: cruzain (T. cruzi) inhibition with detergent; P25779; purified cruzain, Z-FR-AMC fluorescence, 0.01% Triton; Potency, µM, inactives show max response, negative = inhibition, actives largely listed as inhibitors; AID 1478; 200,000 tested, 0.43% active;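 further: plate controls were neutral wells for no effect and buffer without enzyme for full effect; nearly all actives have a fitted effect of over 40% in size; top concentration of the series not given in the record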
# Target sequence (P25779 123-467 limits assumed): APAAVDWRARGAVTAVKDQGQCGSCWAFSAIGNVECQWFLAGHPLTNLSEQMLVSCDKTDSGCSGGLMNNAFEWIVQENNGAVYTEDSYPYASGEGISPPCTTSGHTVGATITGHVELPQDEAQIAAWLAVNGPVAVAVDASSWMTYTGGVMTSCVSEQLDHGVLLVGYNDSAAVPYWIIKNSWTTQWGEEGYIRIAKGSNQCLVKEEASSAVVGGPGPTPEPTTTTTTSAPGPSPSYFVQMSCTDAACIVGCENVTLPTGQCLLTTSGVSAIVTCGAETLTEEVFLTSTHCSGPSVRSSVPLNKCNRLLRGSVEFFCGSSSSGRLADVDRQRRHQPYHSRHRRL
#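 Detergent-containing arm of a paired screen for aggregation-based inhibition: 0.01% Triton X-100 present. Cruzain at 1.5 nM cleaved 2 uM Z-FR-AMC at pH 5.5 with 5 mM DTT; AMC fluorescence gain over 60 s measured activity.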
# Cruzain noTriton: cruzain (T. cruzi) inhibition without detergent; purified cruzain, Z-FR-AMC fluorescence, no detergent; Potency, µM, inactives show max response, negative = inhibition, hits mostly inhibitors; 200,000 tested, 2.3% active; AID 1476;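 further: plate controls were enzyme without inhibitor for no effect and buffer without enzyme for full effect; nearly all actives have a fitted effect of over 40% in size; top concentration of the series not given in the record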
#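 Detergent-free condition (0.00005% Triton X-100) in acetate buffer pH 5.5 with DTT. 1.5 nM enzyme and compound were pre-mixed 15 min, then 2 uM Z-FR-AMC substrate added; reaction progress from fluorescence change between first and third reads (60 s).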
# Lassa entry inh: Lassa virus entry inhibition; Potency, µM (top dose mostly 37.9 µM), for the others: at the top dose activity change, negative = inhibition, usual class: inhibitors; Lassa virus pseudotype entry inhibition, cell reporter; control for the full effect not named in the record; AID 540256; 300,000 tested, 1.2% active; active means well fitted inhibition curve with a large enough effect; inconclusive means small, poorly fitted or top-dose-only effect, or effect the other way; inactive means flat fitted curve, though single readings scatter; tested in HEK293 cells; further: on the % scale 0 is the no-effect control and ±100 the full control effect; nearly all actives have a fitted effect of over 50% in size; luciferase read-out
# NS1 inh: blocks influenza NS1 protein function | S. cerevisiae slowed by influenza A NS1, growth recovery by OD600 | Potency, µM (titrated, usually from 46.1 µM), inactives show top-dose activity, positive = more growth | 270,000 tested, 0.4% active | AID 2326; active means well fitted rising curve with a large enough effect; inconclusive means small, poorly fitted or top-dose-only effect; inactive means no such curve, though single readings can be large or run the other way; further: nearly all actives have a fitted effect of over 50% in size
#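 Read-out: OD600 growth recovery of NS1-expressing budding yeast. Cells grown overnight at 30C in -URA glucose medium, washed, resuspended and diluted 1:100 in 2% galactose assay medium, pH 6.0. Same strain lacking NS1 served as positive control.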
# Marburg entry inh: inhibitors of Marburg virus binding or cell entry; 300,000 tested, 1.8% active; Marburg virus pseudotyped entry inhibition, cell reporter; control for the full effect not named in the record; about a third of the inactives were read at about 46 µM; Potency, µM (series often up to 37.8 µM), for inactives: at the top dose activity change, negative = inhibition, actives largely listed as inhibitors; active = well fitted inhibition curve with a large enough effect; inconclusive = small, poorly fitted or top-dose-only effect, or effect the other way; inactive = flat fitted curve, though single readings scatter; tested in HEK293 cells; about a fifth of its hits are not listed in these tables; further: on the % scale 0 is the no-effect control and ±100 the full control effect; luciferase read-out
# RE007 growth inh: less growth of the S. pombe RE007 Vpr strain | S. pombe RE007 Vpr strain, BacTiter-Glo ATP luminescence, 24 h; control for the full effect not named in the record | Potency, µM (top dose mostly 92.2 µM), without a hit: top-dose activity change, negative = less growth | 360,000 tested, 0.21% active; active = well fitted falling curve with a large enough effect; inconclusive = small, poorly fitted or top-dose-only effect; inactive = no such curve, though single readings can be large or run the other way;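 further: on the % scale 0 is the no-effect control and ±100 the full control effect; nearly all actives have a fitted effect of over 50% in size; the assay follows cell death caused by Vpr and the record does not say whether a fall means rescue or toxicity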
#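 Fission yeast RE007 carrying one integrated HIV-1 vpr copy, seeded at OD 0.01 in PMG+AL medium with 23 nL pinned compound. Grown 24 h at 30 degrees; viability read by BacTiter-Glo luminescence after 5 min.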
# Starred values were filed as active, the others as inactive; ? = inconclusive; nt = not tested or not shown; & = joins results of further samples; [ ] = remark or other dose. Unless noted, the call rests on the fitted dose curve; in most records, active means well fitted curve in the direction sought with a large enough effect; inconclusive means small, poorly fitted or top-dose-only effect, or another doubt; inactive means no such curve, though single readings can be large; an effect the other way counts as inactive or inconclusive. Potency means the concentration at half of the fitted maximal effect.
SMILES,SARS PLpro yeast,2A StopGo,Cruzain Triton,Cruzain noTriton,Lassa entry inh,NS1 inh,Marburg entry inh,RE007 growth inh
O=C(c1ccccc1)N1CCN(c2ccccc2)CC1,nt,0%,nt,nt,15%[46.1 µM],nt,?,1%
O=C1CC(N(O)c2ccccc2)C(=O)N1c1cc(Cl)cc(Cl)c1 (stereo not given),-31%,21%,-4.7%,-1%,-14%,-6%,-21%,-17%
Cc1occc1C(=O)N/N=C/c1ccc(Cl)c([N+](=O)[O-])c1,?,38%[activator],-0.2%,2%,-5%,-11%,4µM*,-3%
Cc1ccc(NC(=S)N2CCN(S(=O)(=O)c3ccccc3)CC2)cc1C,0%,15%,nt,nt,?,7%,8%[46.1 µM],5%
O=C(NCC(c1cccnc1)N1CCN(c2ccccc2F)CC1)Oc1ccccc1 (stereo not given),6%,?,3.3%,-9%,-9%,-21%,-16%,-12%
CC(=O)Nc1nnc(SCc2ccc(C(=O)Nc3ccccc3F)cc2)s1,-2%,15%,nt,nt,?,nt,-5%,-12%
O=C(CCn1c(=O)c2cccn2c2ccccc21)Nc1ccc(F)cc1,1%,-10%&0%,-6.3%,3%,?,12%,nt,-1%
O=C(CN1CCCCC1)Nc1nnc(-c2ccc([N+](=O)[O-])cc2)s1,-24%,-23%,-6.8%,-24%,?,-3%,17%,-15%
COc1ccccc1NC(=O)c1cc2n(n1)C(C(F)(F)F)CC(c1ccc3c(c1)OCO3)N2 (stereo not given),-6%,0%,-0.2%,-2%,?,-19%,?,3%
O=C(COC(=O)c1ccccc1O)NCc1ccco1,-5%,40%[activator],nt,nt,-12%[46.1 µM],nt,0%[46.1 µM],-2%
Cc1nnc2ccc(-c3ccc(NC(=O)Cc4cccs4)cc3)nn12,1%,-1%,nt,nt,10%,6%,8%,-7%
CCOC(=O)C1=C(O)/C(=C\c2ccc(OC)c(OC)c2)N=C1C,3%,-15%,-1.7%,-2%,13%,21%,0%,-9%
CN1CCN(c2ccc(NC(=O)c3cc([N+](=O)[O-])ccc3N3CCOCC3)cc2)CC1,20%,-8%,nt,nt,14%,1%,?,-14%
COc1ccc(NC(=O)NS(=O)(=O)c2ccc(C)cc2)cn1,0%,42%[activator],nt,nt,4%,-4%,-12%,-6%
O=c1c2sc3ccccc3c2n(Cc2cccc(Cl)c2)c(=O)n1Cc1ccccc1,nt,-15%,-1.5%,?,-3%[46.1 µM],nt,?,nt
CC(C)CN1CCC(=O)N([C@H](CO)c2ccccc2)CC1,-1%,-4%,nt,nt,nt,2%,nt,5%
CCc1c(C)nc(SCc2nc(-c3ccccc3C)no2)[nH]c1=O,nt,-12%,-0.8%,-4%,-6%[46.1 µM],nt,nt,nt
O=C(NC(=S)Nc1cccc(NC(=S)NC(=O)c2ccco2)n1)c1ccco1,0%,51%[activator],nt,nt,10%,5%,9%[46.1 µM],6%
CC(=O)Oc1ccc2ccccc2c1C(NC(=O)Cc1ccccc1)c1ccccc1 (stereo not given),-11%,-30%,-1.3%,0%,?,2%,?,4%
Cc1ccc(C(=O)N[C@H](C(=O)Nc2ccc(N3CCOCC3)cc2)C(C)C)cc1,-12%,-19%,nt,nt,-2%,nt,?,-8%
CCCCNC(=O)CN1CCN(Cc2ccc3cc(OC)ccc3c2)CC1,1%,?,nt,nt,nt,1%,nt,-5%
Cc1cc(C)c2nc(C)cc(Nc3ccc(C(=O)N(C)C)cc3)c2c1,0%,1%,nt,nt,nt,2%,nt,4%
O=C(NCCCNC(=O)c1ccco1)c1ccc(Cl)cc1,2%,23%,nt,nt,nt,4%,?,-3%
O=C(Nc1ccccc1)/C(=C/c1ccc(O)cc1)NC(=O)c1ccco1,2%,0%,nt,nt,-15%[46.1 µM],13%,10%[46.1 µM],7%
COc1ccc(C(=O)COC(=O)c2sc(C)nc2C)cc1F,-1%,-14%,nt,nt,-15%,nt,-21%,24%
C1=C(CCNc2ncnc3c2[nH]c2ccccc23)CCCC1,-102%,-1%,-16%,-23%,?,-38%,?,4%
CN1C(=O)C(C)(C)c2cc(S(=O)(=O)NCCc3ccc(Cl)cc3)ccc21,1%,59%[activator],nt,nt,nt,-5%,nt,5%
Cc1ccc(-n2ncc3c(NCc4ccccn4)ncnc32)c(C)c1,1%,-19%,-5.9%,16%,7%,-10%,?,10%
N#CCC(=O)Nc1ccc(C(=O)OCC(=O)NC(=O)Cc2ccccc2)cc1,2%,47%[activator],nt,nt,14%,nt,-2%,15%
COc1ccccc1/C=C/C=N/NC(=O)c1ccc(=O)n(C)c1,-26%,2%,-12%,-2%,-7%,-4%,6%,5%
CCOc1cc2nc(-c3ccc(OC)c(OC)c3)nc(NCCCN3CCOCC3)c2cc1OC,3%,-12%,-4.8%,-6%,?,0%,?,-8%
CC1=NNC(=O)C1CC(=O)N/N=C/C(C)=C/c1ccccc1 (stereo not given),-6%,17%,nt,nt,2%[46.1 µM],nt,3%[46.1 µM],13%
O=C(NC(=S)NCc1cccnc1)c1ccccc1[N+](=O)[O-],16%,-23%,-4.2%,-3%,-8%,10%,?,nt
Cc1cccc(C)c1OCCN1C(=O)NC(C)(c2ccccc2)C1=O (stereo not given),-3%,-10%,nt,nt,17%,nt,nt,6%
Cc1ccccc1NC(=S)NC(C)CCc1ccccc1 (stereo not given),-9%,27%,-2.8%,-7%,-17%,-33%,?,-2%
Cc1cnccc1CN(C)C(=O)C1CCC(=O)N(Cc2ccccc2F)C1 (stereo not given),0%,16%,nt,nt,nt,1%,nt,-11%
CCN(CC)S(=O)(=O)c1ccc(-c2nnc(SCC(=O)N3CCc4ccccc43)o2)cc1,5%,nt,-2.1%,-1%,?,1%,?,9%
Cc1c(CC(=O)O)c(=O)oc2cc(OCc3ccc(F)cc3F)ccc12,-3%,15%,nt,nt,5%[46.1 µM],6%,13%[46.1 µM],10%
COC(=O)c1ccc(CNC(=O)CSc2nnc(COc3ccccc3)n2C)o1,-6%,0%,2.3%,16%,-5%,3%,-6%,10%
Cc1ccccc1NC(=S)Nc1cccc2cnccc12,-20%,?,nt,nt,5%,nt,-5%[46.1 µM],-16%
CC1(C)CC(=O)c2cc(C(=O)Nc3ccc(Br)cc3)c(=O)n(-c3ccc(Cl)cc3)c2C1,nt,-3%,-0.1%,-1%,-3%[46.1 µM],nt,?,nt
O=C(CC1Sc2ccccc2NC1=O)OCc1cc(=O)oc2cc(O)ccc12 (stereo not given),-8%,-17%,-15%,?,1%,19%,?,-1%
COc1cccc(CN2CCNC(=O)C2CC(=O)N(C)CC2CCOCC2)c1OC (stereo not given),-8%,-1%,nt,nt,3%[46.1 µM],7%,-2%[46.1 µM],-2%
CCOC(=O)N1CCN(C(=O)Cn2nc(C)n3nc(-c4ccccc4)cc3c2=O)CC1,20%,-9%,nt,nt,?,7%,?,1%
COc1ccccc1C(=O)NC(=O)COC(=O)c1ccc([N+](=O)[O-])cc1Cl,nt,?,nt,nt,10%,nt,?,0%
Cc1cc(NC(=O)CCC(=O)NNC(=O)c2ccc(C(C)(C)C)cc2)no1,3%,24%,-2.4%,-2%,3%,0%,?,12%
COc1ccc(C)cc1S(=O)(=O)N(CC(N)=O)Cc1ccccc1,4%,-19%,4.9%,-3%,-3%,2%,5%,3%
CCC(=O)Oc1ccc2c(C)cc(=O)oc2c1C(=O)c1ccccc1,-14%,2%,-5.7%,3%,12%,-3%,?,10%
CSc1nnc(CNC(=O)c2ccccc2)n1-c1cccc(C)c1,-11%,-16%,-2.3%,-8%,nt,-1%,nt,-1%
Cc1ccc(-n2ncc3c(NNC(=O)c4ccco4)ncnc32)cc1C,6%,0%,nt,nt,nt,6%,nt,-11%
COCCN1CN(S(=O)(=O)c2ccc(Cl)cc2)c2nc3ccccc3nc21,-10%,-1%,-6.4%,?,0%,-1%,-19%,1%
COc1ccccc1/C=C/C=N/NC(=O)CCn1nnc2ccccc21,-2%,-24%,-8.0%,1%,16%,3%,0%,-4%
Cc1cc(C)c(S(=O)(=O)N2CCN(C(=O)c3cccs3)CC2)c(C)c1,-1%,-17%,nt,nt,2%[46.1 µM],-6%,10%[46.1 µM],-7%
O=C(O)COc1ccccc1/C=C1\C(=O)NC(=O)N(CCC2=CCCCC2)C1=O,0%,2%,nt,nt,11%[46.1 µM],8%,0%[46.1 µM],-1%
CCOC(=O)c1nc2sc3c(c2c(=O)[nH]1)CCCC3,-7%&0%,-13%,-15%,?,-12%,-31%&4%,24%&24%,?
Cc1ccc(C(=O)N(CN2CCCC2=O)c2ccc(F)cc2)cc1,-1%,43%[activator],2.5%,-5%,8%,-9%,25%,6%
COc1ccc(OC)c(NC(=O)C2CCN(c3cc(-c4ccccc4)nc4ncnn34)CC2)c1,1%,-10%,-1.0%,25%,-2%,-10%,?,1%
Cc1nccn1-c1cc(C(C)(C)C)nc2c(-c3ccccc3)cnn12,-3%,2%,-6.5%,?,3%,1%,7%,-5%
CC(=O)c1ccccc1OC(=O)COc1ccc(Cl)cc1C,-2%,-12%,nt,nt,-9%,-54%,9%[46.1 µM],-14%
CCOC(=O)C12CC1/C(=N/O)c1ccccc1O2 (stereo not given),nt,nt,-3.0%,-7%,?,-14%,?,nt

# (continued)
SMILES,SARS PLpro yeast,2A StopGo,Cruzain Triton,Cruzain noTriton,Lassa entry inh,NS1 inh,Marburg entry inh,RE007 growth inh
Nn1c(SCC(=O)N2CCOCC2)nnc1C1CC1,2%,-4%,nt,nt,1%,-4%,?,-7%
COc1ccc(-c2nn(CCC#N)cc2C(=O)NCc2ccccc2)cc1,1%,46%[activator],nt,nt,nt,-3%,nt,-2%
CC(Oc1cccc(Cl)c1)C(=O)Nc1nc(-c2ccccn2)cs1 (stereo not given),-4%,?,nt,nt,?,nt,?,45µM*
Cc1ccc(S(=O)(=O)N2CCC(C)CC2)cc1C(=O)NCc1ccccn1,-2%,-6%,nt,nt,0%,7%,?,-3%
CN(C)/C=C/C(=O)c1cnc(-c2ccccc2Cl)s1,0%,93%[activator],nt,nt,nt,9%,nt,-15%
Cc1ccc(Cl)cc1NC(=O)C(NS(=O)(=O)c1cccc2nsnc12)c1ccccc1 (stereo not given),nt,-7%,-7.3%,?,10%[46.1 µM],nt,-29%[46.1 µM],nt
